Sa helicase inh – blocks Staphylococcus aureus DNA helicase. purified S. aureus helicase, fluorescence unwinding assay; about half of the hits fall short of the stated cut. inhibition, %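 (tested at about 80 µM)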. 120,000 compounds, 0.05% hits. AID 485395;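 active = both duplicates at 50% or more, or one of them with a favoured structure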;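 note: 0% = mean of negative control wells and 100% = mean of positive control wells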
MgrA DNA FP – S. aureus MgrA-DNA binding modulation; AID 602314; fluorescence polarization; 84,000 compounds, 0.13% hits; inhibition, %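 (about 10 µg/mL by stock and volumes)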;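 active = above 50% in either of two replicates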;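 note: 0% = protein plus DNA without compound and 100% = DNA alone without protein; higher means less MgrA bound to DNA so lower polarization; one replicate is shown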
Starred values were filed as active, the others as inactive; . = no result given; & = joins results of further samples.

no.	SMILES	MgrA DNA FP	Sa helicase inh
1	Cc1nn(C)c2sc(C(=O)NN)cc12	.	26
2	N#Cc1ccc(C(=O)N(Cc2ccccc2)c2ccccn2)cc1	-0.2	4
3	CC(C)C(=O)Nc1cccc(NC(=S)NC(=O)/C=C/c2ccco2)c1	31	-1
4	CSCc1ccc(C(=O)Nc2ccc(C)cc2O)cc1	0.7	.
5	O=C(Cc1ccccc1)O/N=C/c1ccc2c(c1)OCO2	.	-19
6	CCCCN(CC)S(=O)(=O)c1ccc(C(=O)Nc2ccccc2-c2nc3ccccc3[nH]2)cc1	0.7	-1
7	O=c1cnnc(NCCN2CCOCC2)[nH]1	-1.9	3
8	COC(=O)c1ccsc1NC(=O)C(C)C	.	12
9	NC1=NC(c2ccccc2)n2c(nc(=O)c3ccccc32)N1 (stereo not drawn)	.	-40
10	Cc1ccc(OCc2nnc(SCC(=O)NC3CCCCC3C)o2)cc1 (stereo not drawn)	.	15
11	CCn1c(C)c(C2=CCN(S(=O)(=O)c3cccc4nsnc34)CC2)c2ccccc21	.	6
12	O=C(N/N=C/c1ccco1)C12CC3CC(CC(C3)C1)C2	.	5
13	COc1ccc(-c2nc3scc(CCNC(=O)Cc4ccccc4)n3n2)cc1	.	12
14	CCOC(=O)c1c(C)[nH]c(C(=O)C(C)Sc2nncn2C(C)C)c1C (stereo not drawn)	.	6
15	Cc1cccn2cc(CNC(=O)CC(C)(C)C)nc12	.	-3
16	N#Cc1ccccc1CSc1nnc2c(Cl)cc(Cl)cn12	.	5
17	COc1ccc(-n2cc(C(=O)NCC3Cc4ccccc4O3)nn2)cc1 (stereo not drawn)	.	-23
18	Cc1nnsc1C(=O)Nc1ccccc1C(F)(F)F	.	-20
19	Cc1ccc(/C=C/C(=O)N2CCN(c3cccc(C)c3C)CC2)cc1	7.1	4
20	Cc1ccc(SCC(=O)c2cccc([N+](=O)[O-])c2)cc1	-0.5	.
21	Cc1cccc(NC(=S)NCc2ccncc2)c1	0.3	.
22	Cc1cc(C)c2c(n1)sc1c(=O)n(-c3cccc4cccnc34)nnc12	.	4
23	NS(=O)(=O)c1ccc(CCNC(=O)CN2CCNC(=O)C2)cc1	.	13
24	CCc1ccc(NC(=O)C(C)N2CCN(S(=O)(=O)c3ccc(C)cc3C)CC2)cc1 (stereo not drawn)	.	-10
25	CCC(C)Nc1nc(Cl)nc(N(C#N)CN2C(=O)c3ccccc3S2(=O)=O)n1 (stereo not drawn)	.	-7
26	N#CCc1nc2cc(C(F)(F)F)ccc2s1	.	-24
27	S=C(Nc1cccc(Cl)c1)Nc1cc(-c2ccc(Cl)cc2)[nH]n1	-2.2	2
28	OC1(C(F)(F)F)CC(c2ccccc2)=NN1c1cccc2cccnc12 (stereo not drawn)	-1.3	.
29	O=C(Nc1ccc(OCC(F)(F)C(F)F)c(C(F)(F)F)c1)c1ccccc1O	2.9	1
30	COc1cc(C(=O)N=c2c(C#N)cc3c(=O)n4cccc(C)c4nc3n2C(C)C)cc(OC)c1OC	.	-18
31	Cc1ccc(S(=O)(=O)N2Cc3ccccc3CC2C(=O)NC2CCCCC2)cc1 (stereo not drawn)	-0.4	6
32	COc1ccc(CC(C)CC(=O)Nc2ccc(I)cc2)cc1 (stereo not drawn)	2.8	11
33	c1ccc(Cn2c(NCc3ccncc3)nc3ccccc32)cc1	0.8	2
34	Cc1ccc(N=C2NC(=O)C(Cc3cccc(Cl)c3)S2)cc1 (stereo not drawn)	-1.1	.
35	O=C1CC(C(F)(F)F)=Nc2ccccc2N1	0.6	.
36	O=C(Nc1ccc(C(=O)N2CCCCC2)cc1)C1=CSCCO1	.	10
37	Cc1cc(C(=O)CSc2nc3ccccc3o2)c(C)n1CC1CCCO1 (stereo not drawn)	.	10
38	CCOC(=O)c1cc(-c2ccnn2S(=O)(=O)c2cccc(C(F)(F)F)c2)on1	4.0	.
39	S=C(NCC1CCCO1)N1CCn2c(nc3ccccc32)C1 (stereo not drawn)	.	17
40	O=C(COC(=O)C1CCCO1)Nc1cc(Cl)cc(Cl)c1 (stereo not drawn)	-4.0	-11
41	O=C(CSCc1nnc(-c2ccc(F)cc2)o1)Nc1ccccc1F	.	-3
42	CCOc1ccc(N(CC)C(=O)NC2CC(=O)N(c3ccc(OC)cc3)C2)cc1 (stereo not drawn)	.	9
43	Cc1cc(=O)oc2c1c(C)nn2C	.	8
44	Cc1c(C(=O)NN2CCN(C)CC2)oc2ccccc12	-0.8	8
45	O=S(=O)(/N=C/c1ccco1)c1cccs1	.	4
46	Cc1ccn2c(NC(=O)C(C)(C)C)c(-c3ccc(F)cc3)nc2c1	.	-1
47	O=c1c(-c2cc(F)ccc2F)c(O)nc2n1CCCC2	.	-13
48	COCCn1c(C)cc(-c2csc(NCc3ccc(C)cc3)n2)c1C	.	-13
49	Cc1nc(SCSc2nc3ccccc3s2)nc2c1CCCC2	0.6	-9
50	O=C(NCC(c1ccco1)N1CCCCC1)C1(c2ccccc2)CC1 (stereo not drawn)	.	1
51	CN(C)C(=O)N1CCN(S(=O)(=O)c2ccccc2)C1	-0.6	8
52	CC1CC(NC(=O)/C(C#N)=C/c2ccc[nH]2)CC(C)(C)C1 (stereo not drawn)	.	-15
53	CCn1c(=O)c(=O)n(CC)c2cc(S(=O)(=O)NCc3cccs3)ccc21	2.1	8
54	O=C(CN1CCOCC1)N1N=C(c2c(-c3ccccc3)c3cc(Br)ccc3[nH]c2=O)CC1c1ccccc1 (stereo not drawn)	1.0	.
55	O=C(c1cccc2c1-c1ccccc1C2)N1CCCCC1	-0.4	.
56	CCOc1ccc(N=Cc2ccc(N(CC)CC)cc2O)cc1	.	7

Going on with the list:
no.	SMILES	MgrA DNA FP	Sa helicase inh
57	Cc1nc2sccn2c(=O)c1S(=O)(=O)NCCc1ccccc1	1.5	9
58	Cc1noc(C)c1-c1nc(CSc2ccccc2N)no1	-4.8	.
59	COc1cc2ccccc2cc1C(=O)Nc1ccccc1-c1nc2ccccc2[nH]1	0.0	.
60	COC(=O)C[C@H](N)C(=O)N[C@H](Cc1ccccc1)C(=O)OC	-0.1	.
61	O=C(COc1ccc(Br)cc1)N1CCOCC1	3.0	11
62	COC1(OC)c2nonc2C(OC)(OC)c2nonc21	0.9	-6
63	Cc1cc(C(=O)Nc2ccc(CC(=O)O)cc2)cs1	0.4	16
64	Cc1ccc(C)c(N2CCN(CCCNC(=O)c3nc(-c4cccnc4)no3)CC2)c1	.	25
65	CN/C(=C\[N+](=O)[O-])NCCSCc1ccc(CN(C)C)o1	-1.0&-0.4	.
66	Cc1ccc(C)c(N2CCN(S(=O)(=O)c3ccc4[nH]c(=O)ccc4c3)CC2)c1	-1.6	2
67	O=[N+]([O-])c1ccc(Sc2ncn[nH]2)c([N+](=O)[O-])c1	1.5	.
68	C[C@H]1[C@H](C)CC[C@]2(C(=O)O)CC[C@]3(C)C(=CCC4[C@@]5(C)CC[C@H](O)C(C)(C)[C@@H]5CC[C@]43C)[C@H]12 (stereo partly drawn)	4.3	.
69	N#Cc1c(N2CCOCC2)nsc1-c1ccc(C(F)(F)F)cc1	-3.0	.
70	Cc1ccc(CC(=O)[C@@H]2[C@@H](c3ccoc3)C(C#N)(C#N)[C@H]3C=Cc4ccccc4N23)cc1	3.5	-1
71	CCC(C)NC(=O)c1cc(-c2ccc(O)cc2)on1 (stereo not drawn)	.	10
72	COC(=O)c1ccc(COC(=O)c2ccc3c(c2)S(=O)(=O)N=C2CCCCCN23)o1	.	-15
73	Cc1cc(C(=O)CO/N=C/c2ccco2)c(C)n1C	.	6
74	CN(C)C(=O)n1c(SCc2ccccc2)nnc1-c1ccc(C(C)(C)C)cc1	0.2	.
75	CCNc1nc(Oc2ccc(C(=O)OC)cc2)nc(SC)n1	0.1	-1
76	O=C(OCC(=O)N1CCCCC1)c1cccs1	1.8	-1
77	CC1CCc2nc3ccc4ccccc4c3c(-c3ccc(O)c(O)c3)c2C1 (stereo not drawn)	-2.1	9
78	O=C1CN(C(=O)CSc2ncnc3ccccc23)c2ccccc2N1	.	12
79	Cc1ccc2nc(CSc3nnc(-c4cccs4)n3CC3CCCO3)cc(=O)n2c1 (stereo not drawn)	.	-5
80	COc1cc(C)nc(N(C)S(=O)(=O)c2ccccc2Cl)n1	.	8
81	S=c1[nH]nc2ccccn12	.	-2&-4
82	COC(=O)/C=C/c1ccc(Br)cc1	-0.1	.
83	O=C(NC(Nc1ccc(Cl)cc1)C(=O)c1ccccc1)c1ccccc1 (stereo not drawn)	-0.6	5
84	Cc1sc(/N=C/c2ccc(Br)s2)c(C(N)=O)c1C	-0.1	0
85	CC(C)(C)c1ccc2[nH]c3c(cc(NC4CCCCC4)c4c(=O)c5ccccc5c(=O)c43)oc2c1	-2.0	.
86	COc1cc(COc2ccc3c(C)c(CC(=O)O)c(=O)oc3c2C)cc(OC)c1OC	.	5
87	CN(Cc1nc2ccccc2c(=O)[nH]1)C(=O)c1nn(Cc2ccccc2)c(=O)c2ccccc12	.	-5
88	Cc1ccccc1C1C2=C(Nc3c1c(=O)n(C)c(=O)n3C)c1ccccc1C2=O (stereo not drawn)	0.1	12

Overlap with the part before: two entries; new compounds follow.
no.	SMILES	MgrA DNA FP	Sa helicase inh
87	CN(Cc1nc2ccccc2c(=O)[nH]1)C(=O)c1nn(Cc2ccccc2)c(=O)c2ccccc12	.	-5
88	Cc1ccccc1C1C2=C(Nc3c1c(=O)n(C)c(=O)n3C)c1ccccc1C2=O (stereo not drawn)	0.1	12
89	COc1cc(NC(=O)CN2CCCCCC2=O)c(OC)cc1Cl	.	-3
90	Cc1cc(C(=O)COC(=O)CCc2nc3ccccc3s2)c(C)n1CC1CCCO1 (stereo not drawn)	.	-13
91	NC(=O)c1oc2ccccc2c1NC(=O)Cc1ccc(Cl)cc1	.	6
92	CCOC(=O)c1c(CC(C)C)csc1NC(=O)Cc1ccccc1	-0.3	4
93	CCOc1cc(C#N)cc(Cl)c1O	.	-10
94	Brc1ccc(NC2=Nc3ccccc3SC2)cc1	.	-4
95	CCOC(=O)C1CCCN(c2cc(Nc3ccc4c(c3)OCO4)c3c4c(onc24)-c2ccccc2C3=O)C1 (stereo not drawn)	.	-92
96	O=C(Cn1c(=O)n(-c2ccccc2)c(=O)c2sccc21)NC1CCCC1	.	4

Entries of single compounds from above. Order of values: MgrA DNA FP | Sa helicase inh
Results for `Cc1cc(C(=O)COC(=O)CCc2nc3ccccc3s2)c(C)n1CC1CCCO1` (stereo not drawn) → . | -13
Results for `CCOC(=O)C1CCCN(c2cc(Nc3ccc4c(c3)OCO4)c3c4c(onc24)-c2ccccc2C3=O)C1` (stereo not drawn) → . | -92
Results for `COc1cc(NC(=O)CN2CCCCCC2=O)c(OC)cc1Cl` → . | -3
Results for `O=C(Cn1c(=O)n(-c2ccccc2)c(=O)c2sccc21)NC1CCCC1` → . | 4
Results for `CCOC(=O)c1c(CC(C)C)csc1NC(=O)Cc1ccccc1` → -0.3 | 4

(listing goes on)
no.	SMILES	MgrA DNA FP	Sa helicase inh
97	CCCC(=O)N1CC2(C)CN(C(=O)CCC)CC(c3ccccc3)(C1)C2=O	-4.2	15
98	Cc1cc(C)c2c(=O)cc(C(F)(F)C(F)F)oc2n1	1.4	-9
99	C=CCn1c(N)c(C(N)=O)sc1=S	-0.7	7
100	COc1ccc(OC)c(/C=N\NC(=O)C2C(=O)NCC2c2ccccc2)c1 (stereo not drawn)	2.0	5
101	C[N+]1(CCOC(=O)Nc2ccccc2)CCCCC1	1.1	-6
102	CCn1nnc(N(C(=O)c2cccs2)C(=O)c2cccs2)n1	24	6
103	CCOC(=O)Nc1sc(NS(=O)(=O)c2ccc(C)cc2)nc1C	.	2
104	CCOC(=O)c1cc(C(=O)c2ccc(Cl)cc2)n2c1ccc1ccccc12	0.8	-14
105	N#CC1(c2ccccc2)N=C2C=CC=CN2N=C1c1ccccc1 (stereo not drawn)	-0.4	.
106	CC1=[N+]([O-])C(C)(C)C(c2cccs2)=[N+]1[O-]	.	-4
107	COc1cccc2cc(C(=O)Nc3ccccc3)c(=Nc3ccc(C#N)cc3)oc12	-0.3	.
108	CC(=O)N(Cc1cc2ccc(C)cc2[nH]c1=O)CC1CCCO1 (stereo not drawn)	-0.1	2
109	N#Cc1c(N)n(C2CCCC2)c2nc3ccccc3nc12	.	2
110	CC(C)(C)SCCNc1nc(Sc2ccc(Cl)cc2)nc(N2CCSCC2)n1	-2.3	.
111	COc1ccc(C2=NN3C(C2)c2ccccc2OC32C(=O)Nc3ccccc32)cc1 (stereo not drawn)	.	31
112	COc1ccc(CN(CCN(C)C)Cc2ccccc2)c(OC)c1	-5.2	-2
113	CC(C)=CCCC1=CCC2C(=O)NNC(=O)C2C1 (stereo not drawn)	0.6	6
114	O=c1[nH]c(C(F)(F)F)nc2c1cnn2-c1ccccc1	-0.7	-22
115	COc1ccccc1NS(=O)(=O)c1ccc(NC(=O)CCN2C(=O)C3CC=CCC3C2=O)cc1 (stereo not drawn)	.	0
116	CCCCNc1c(C(=O)OCC)c(C)nc2c1cnn2CC	4.3	.
117	N#Cc1ccc(-c2ccccc2)nc1SCC(=O)O	.	-5
118	CCC(Sc1nc(C)cc(C)n1)C(=O)NC(C)c1ccccc1 (stereo not drawn)	.	-6
119	COc1ccc(NC(=O)CN2CCCC2)cc1	2.7	-9
120	COc1ccc(NC(=O)C(CC(C)C)NS(=O)(=O)c2ccc3[nH]c(=O)oc3c2)cc1 (stereo not drawn)	.	-25

Bioassay records deposited in PubChem by ICCB-Longwood Screening Facility, Harvard Medical School.

Some of the compounds tested (hit frequency here may not be typical).
